Screens (PubChem BioAssay)
Yeast UUG start: modulators of yeast start codon fidelity, primary screen, whole organism, S. cerevisiae, single point, plate reader; AID 602363, 2012; S. cerevisiae UUG-firefly luciferase reporter, luminescence/redox ratio; activity score, % at 18.7 µM; 0.13% of 350,000 active;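 active = replicate mean at a twofold rise or more, about +100% in these data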;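 also: firefly luciferase made from a UUG start codon reports start codon fidelity; reporter light over untreated wells divided by growth signal over untreated wells; some hits fall short of that in this replicate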
PABP polyA inh: PABP poly(A) RNA binding inhibitors, primary screen, biochemical, fluorescence polarization, uHTS; Polyadenylate-binding protein 1 (Homo sapiens), P11940; inhibition, % at 35 µM; 1% of 290,000 active; AID 2014, 2009;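 active = 50% or more with normal probe brightness, or confirmed in later tests; about a fifth of its hits are not listed in these tables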;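 also: calls also rest on retests at 20 µM and on dose response follow-up; controls were probe without protein and protein plus probe with vehicle; some compounds called inactive have numbers as strong as hits; many hits fall short of the cut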
Target sequence (P11940 whole entry, looked up): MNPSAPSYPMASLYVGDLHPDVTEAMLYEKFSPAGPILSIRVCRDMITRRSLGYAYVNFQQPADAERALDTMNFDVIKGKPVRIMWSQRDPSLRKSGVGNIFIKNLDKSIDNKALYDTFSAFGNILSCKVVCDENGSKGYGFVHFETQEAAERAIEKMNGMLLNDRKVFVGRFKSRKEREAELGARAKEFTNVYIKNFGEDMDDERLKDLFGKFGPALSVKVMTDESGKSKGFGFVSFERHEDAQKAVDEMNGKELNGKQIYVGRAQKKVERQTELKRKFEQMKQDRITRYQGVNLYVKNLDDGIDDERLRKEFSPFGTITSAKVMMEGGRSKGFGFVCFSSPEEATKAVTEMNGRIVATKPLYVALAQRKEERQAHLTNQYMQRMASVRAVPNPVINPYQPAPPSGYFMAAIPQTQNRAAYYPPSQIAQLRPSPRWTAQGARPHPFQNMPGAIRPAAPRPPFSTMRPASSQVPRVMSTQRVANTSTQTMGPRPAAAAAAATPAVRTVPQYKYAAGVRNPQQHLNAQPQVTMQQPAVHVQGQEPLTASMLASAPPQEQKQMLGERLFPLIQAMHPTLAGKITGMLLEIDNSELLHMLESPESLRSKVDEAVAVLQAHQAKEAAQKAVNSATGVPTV
Env fusion inh: inhibitors of HIV-1 Env-driven cell-cell fusion, primary screen, HeLa-JRFL effector, CEM21 target cells, luciferase; inhibition, % at 12.3 µM; 1.1% of 360,000 active; AID 651610, 2012;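 active = mean replicate inhibition score of at least 50 and every replicate individually at or above 50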;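 also: 0% = plate neutral controls and 100% = maraviroc near 300 nM; one replicate is shown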
CSC inhib: cancer stem cell viability inhibitors, primary screen, luminescence; cancer stem cell-like cells viability; inhibition, % at 7.5 µM; 1.1% of 300,000 active;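 active = mean at 75% or more and at least half the replicates too; tested in HMLE shEcad cells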;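 also: 0% = median of negative and 100% = median of positive control wells; the first replicate is given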
Rce1 inhib: yeast Rce1p protease inhibitors, primary screen, biochemical, fluorescence, cell-free homogeneous | yeast membranes, quenched prenylated peptide cleavage fluorescence | CAAX prenyl protease 2 (Saccharomyces cerevisiae (strain ATCC 204508 / S288c)), Q03530 | calls only | 0.27% of 290,000 active;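 active = fall in fluorescence gain of 50% or more versus controls, with final raw signal at or below 3038400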;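 also: plate controls were neutral control wells for no effect and wells lacking membranes for full effect; tested at 10 µM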
eIF4H inh: human eIF4H binding inhibitors, primary screen, translation initiation inhibitor project, biochemical, uHTS, fluorescence polarization | Eukaryotic translation initiation factor 4H (Homo sapiens), Q15056 | eIF4H fluorescence polarization binding assay | inhibition, % at 35 µM | 0.94% of 290,000 active;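 active = 50% or more with normal probe brightness, or confirmed in later tests; about a fifth of its hits are not listed in these tables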;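 also: calls also rest on retests at 20 µM and on dose response follow-up; 0% = protein and probe with vehicle and 100% = probe without protein; strong numbers were not always called active; many hits fall short of the cut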
MT1-MMP act inh: blockers of MT1-MMP proenzyme processing, primary screen, HT1080 RFP-PRO-GFP cells, GFP/RFP fluorescence | Matrix metalloproteinase-14 (Homo sapiens), P50281 | GFP/RFP ratio change, % at 20 µM | 0.061% of 360,000 active | AID 651647, 2012 | GFP/RFP ratio fluorescence, overnight; percent of plate control window, DMSO zero;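 active = GFP/RFP ratio change of at least 30% with cell ATP level not reduced by more than half and red fluorescence within 50% of control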; also: strong numbers were not always called active
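Compound: 20 µM single dose, 1% DMSO / System: HT1080 RFP-PRO-GFP cells / Controls: DMSO and RFP-L50D-GFP cell wells / Read-out basis: GFP/RFP fluorescence ratio / Schedule: overnight compound exposure at 37 °C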
eIF4H inh retest: recorded beside eIF4H inh, whose call it bears; inhibition, %; compound at 20 µM; confirmation average;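 mean of two retest wells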
PABP polyA inh retest: recorded beside PABP polyA inh, whose call it bears; inhibition, %; compound at 20 µM; confirmation repeats;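 mean of two retest wells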
MT1-MMP act inh RFP: also measured in MT1-MMP act inh; calls as there; RFP signal change, %; measured here: RFP expression control read;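 0 = vehicle wells; hits needed this value within 50% of zero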
An asterisk follows results filed as active; i = inactive; nt = no result given; + = active, no number.

SMILES	Yeast UUG start	PABP polyA inh	Env fusion inh	CSC inhib	Rce1 inhib	eIF4H inh	MT1-MMP act inh	MT1-MMP act inh RFP	others
COc1ccccc1-c1nnc(SCC(=O)O)n1-c1ccccc1	-3	5	5	-3	i	-7	-3	6
CCN(CCO)c1ccc(NC(=S)Nc2cccc(S(=O)(=O)N(C)C)c2)cc1	nt	8	-26	-4	i	42	3	1
O=C1CSC(=S)N1c1ccc(F)c(Cl)c1	-23	10	6	16	i	-2	10	10
CS(=O)(=O)Nc1cccc(-c2cn3ccccc3n2)c1	nt	10	-29	34	i	-7	0	2
CC(=O)NCc1ccc(C(=O)O)cc1	15	1	8	-22	i	-8	3	7
Cc1ccc(C(=O)NCCCn2ccnc2)o1	-7	12	-19	-32	nt	-7	5	0
Cc1cccc(N2C(=O)CC(SC(=Nc3ccccc3)Nc3ccccc3)C2=O)c1 (stereo not given)	0	-12	nt	-8	i	-5	-1	-5
O=C(CN1CCN(S(=O)(=O)c2ccc(F)cc2)CC1)NC1CCCC1	-20	2	-6	7	i	-8	-3	2
CCOc1ccc(NC(=O)CN(C)C(=O)c2ccc(C3SCCS3)cc2)cc1OCC	-9	nt	-58	-2	nt	nt	0	-2
COc1ccc(C(=O)NCC(=O)N/N=C(\C)c2ccco2)cc1OC	nt	2	1	-8	i	-2	2	2
CCSc1nc2ccccc2c(=O)n1Cc1ccc(F)cc1	nt	1	6	12	i	-8	1	0
C#CCN1C(=O)S/C(=C\c2cc3c(cc2OC)OCO3)C1=O	-12	3	-4	-36	i	15	-12	-1
Cc1cc(C)c(S(=O)(=O)NCC(c2ccco2)N2CCc3ccccc3C2)c(C)c1 (stereo not given)	-5	nt	4	33	i	nt	1	3
Cc1ccc(/C=N/NC(=O)c2c(C)nc3ccc(Br)cn23)cc1	-1	0	-241	-12	i	-6	9	-6
Cc1c(C(C)NC(=O)c2ccc3nc(Cc4ccccc4F)oc3c2)cnn1C (stereo not given)	-6	-15	-1	-7	i	-3	1	2
O=C(/C=C/c1ccco1)N1CCC(Cc2ccccc2)CC1	-12	22	-1	8	i	5	-5	4
Cc1cc(NC(=O)CCN2CCN(C)CC2)ccc1Br	-8	-2	3	3	i	-2	2	-4
COc1ccc(Cl)cc1NC(=O)CCN1C(=O)C2CC=CCC2C1=O (stereo not given)	-3	-7	12	3	i	-8	1	-1
CCOc1ccc(-c2noc(-c3cccnc3)n2)cc1OC	-17	-6	-151	-5	i	-6	2	2
COc1cc(NCCC(=O)c2cccs2)c(OC)cc1Cl	nt	-10	0	-3	i	0	2	0
Cn1cc(SCC(=O)NC2CCCC2)c2ccccc21	-8	-2	-16	-13	i	-10	0	2
CCCn1c(SCC(=O)N2CCc3ccccc3C2)nc(O)cc1=O	-13	nt	nt	-12	nt	nt	0	2
O=C(C1CCN(S(=O)(=O)c2cnc[nH]2)CC1)N1CCc2ccccc2C1	11	-9	6	-10	i	2	-1	1
NC(=O)/C(=C/c1ccco1)NC(=O)/C=C/c1ccccc1	-9	-3	1	2	nt	12	-7	-2
COc1ccc(/C=N/NC(=O)c2cc(-c3cccnc3)nc3ccccc23)c(OC)c1	nt	-11	-1	-12	i	4	3	3

Continued, overlapping the part above by 2 compounds.
SMILES	Yeast UUG start	PABP polyA inh	Env fusion inh	CSC inhib	Rce1 inhib	eIF4H inh	MT1-MMP act inh	MT1-MMP act inh RFP	others
NC(=O)/C(=C/c1ccco1)NC(=O)/C=C/c1ccccc1	-9	-3	1	2	nt	12	-7	-2
COc1ccc(/C=N/NC(=O)c2cc(-c3cccnc3)nc3ccccc23)c(OC)c1	nt	-11	-1	-12	i	4	3	3
CCC(C)N1CC(O)=C(c2nc3ccccc3[nH]2)C1=N (stereo not given)	-13	-2	nt	6	i	-5	2	-1
O=C(COC(=O)CCC1CCCC1)Nc1ccc(Cl)cc1F	-2	0	16	6	i	-3	3	2
O=S(=O)(Nc1ccccc1Cl)c1cccc2nsnc12	-3	3	-4	6	i	10	-1	0
CCCS(=O)(=O)NC(=O)C1(C)CCCN(C(=O)c2c(F)cccc2F)C1 (stereo not given)	12	nt	0	nt	nt	nt	0	7
CCOC(=O)c1sc(=S)n(C)c1C	-23	19	-229	-6	i	-1	4	0
CCOC(=O)C1CCN(C(=O)CN(c2cc(Cl)ccc2OC)S(=O)(=O)c2ccccc2)CC1	6	-5	3	-3	nt	-8	-2	0
CCCNS(=O)(=O)c1cccc2cccnc12	-9	-3	3	-15	i	-3	-5	2
Nc1ccc(Oc2cccc(Oc3ccc(N)cc3)c2)cc1	nt	-3	31	16	i	-7	1	-5
COCc1[nH][nH]c(=O)c1C=NCC(=O)OC	-6	8	-9	-14	i	-2	-3	0
O=C(CN1CCN(Cc2ccccc2)CC1)NC(=O)NC1CCCCC1	12	0	nt	-9	i	-1	-2	-5
Cc1cc(N(C)C(=O)c2ccc3c(c2)S(=O)(=O)c2cc(Cl)ccc2C3=O)c(C(F)(F)F)o1	5	nt	0	4	nt	nt	5	3
O=[N+]([O-])c1cc2c(c(CSc3nnc(Nc4ccccc4)s3)c1)OCOC2	-21	5	nt	10	i	-6	-1	-23
COc1ccc(NC(=O)O/N=C/c2ccncc2)cc1	nt	4	-13	5	i	3	-1	4
CC1CN(c2nc(N(C)c3ccccc3)nc(N)c2[N+](=O)[O-])CC(C)O1 (stereo not given)	nt	-15	10	3	i	-5	5	-4
CCC(=O)c1ccc(OCCN2CCOCC2)cc1	-19	-3	-86	2	i	7	0	6
COc1ccccc1C(=O)NCCCCNC(=O)c1ccccc1OC	nt	nt	6	-3	i	nt	0	2
Cc1cccc(CNC(=O)c2ccc(NC(=O)C3=CSCCO3)cc2)c1	-1	-1	nt	-1	i	-6	9	5
Cc1cccc(N2CCCn3c2nc2c3c(=O)n(CCN3CCOCC3)c(=O)n2C)c1	-17	8	nt	16	i	3	-6	-18
CCn1c(N)c(C(=O)NCc2ccco2)sc1=S	nt	3	nt	-7	i	-6	6	7
Cc1ccccc1NC(=O)Cc1nc(COC(=O)c2ccc(Cl)c(S(N)(=O)=O)c2)cs1	0	nt	-163	-3	i	nt	-1	1
O=C(CSc1nnc(-c2ccncc2)n1-c1ccccc1)NCC1CCCO1 (stereo not given)	5	nt	-6	nt	nt	nt	1	4
COc1ccc(CCN(Cc2cc3cccc(C)c3[nH]c2=O)C(=O)NC2CCCCC2)cc1OC	-14	6	-44	-9	i	-6	-9	-7
Oc1c(N=NC(=S)Nc2ccccc2F)c2ccccc2n1Cc1ccccc1Cl	-4	-1	17	2	+	10	12	-6
CC(C)(C)n1nnnc1C(c1ccccc1)N1CCN(C/C=C/c2ccccc2)CC1 (stereo not given)	-14	nt	-71	nt	nt	nt	1	5
O=C(O)c1cccc(NC(=S)N/N=C/c2ccccc2OCc2cccc(Br)c2)c1	nt	-10	3	nt	i	53*	-3	-6	eIF4H inh retest=68*;PABP polyA inh retest=46

Continued (5 carried over from the part before).
SMILES	Yeast UUG start	PABP polyA inh	Env fusion inh	CSC inhib	Rce1 inhib	eIF4H inh	MT1-MMP act inh	MT1-MMP act inh RFP	others
O=C(CSc1nnc(-c2ccncc2)n1-c1ccccc1)NCC1CCCO1 (stereo not given)	5	nt	-6	nt	nt	nt	1	4
COc1ccc(CCN(Cc2cc3cccc(C)c3[nH]c2=O)C(=O)NC2CCCCC2)cc1OC	-14	6	-44	-9	i	-6	-9	-7
Oc1c(N=NC(=S)Nc2ccccc2F)c2ccccc2n1Cc1ccccc1Cl	-4	-1	17	2	+	10	12	-6
CC(C)(C)n1nnnc1C(c1ccccc1)N1CCN(C/C=C/c2ccccc2)CC1 (stereo not given)	-14	nt	-71	nt	nt	nt	1	5
O=C(O)c1cccc(NC(=S)N/N=C/c2ccccc2OCc2cccc(Br)c2)c1	nt	-10	3	nt	i	53*	-3	-6	eIF4H inh retest=68*;PABP polyA inh retest=46
COc1ccc(C(=O)[C@H]2[C@H]3C(=O)N(c4ccc(OC(C)=O)cc4)C(=O)[C@H]3C3C=CC=NN32)cc1 (stereo not given in full)	nt	0	17	2	i	-8	0	4
CC/C(C)=N/Nc1nc2c(c(=O)[nH]c(=O)n2C)n1Cc1ccccc1	-26	10	27	-3	i	0	-6	-2
C/C(Cl)=C/Cc1c(C)[nH]c2ccc(C)cc2c1=O	-3	2	-24	-2	i	-14	2	2
Cc1cc(S(=O)(=O)NCc2ccccc2)ccc1OCC(=O)NCc1cccnc1	-21	-8	-24	-6	i	-4	5	3
CCOC(=O)c1cc(CC)sc1NC(=O)c1cc([N+](=O)[O-])ccc1N1CCOCC1	2	-7	-72	66	i	-9	10	-11
Cn1c(NCCc2ccncc2)nc2cc(-c3ccccc3)sc2c1=O	-8	nt	-12	nt	nt	nt	-6	0
C(=NN=Cc1c[nH]c2ccccc12)c1c[nH]c2ccccc12	4	nt	-51	nt	nt	nt	2	-1
Nc1nc(NCCCN2CCOCC2)nc(Nc2ccc(F)cc2)c1[N+](=O)[O-]	nt	-6	-59	nt	i	5	3	2
O=C(CCNC(=O)c1ccc(Br)cc1)Nc1ccc(S(=O)(=O)N2CCOCC2)cc1	-1	nt	1	0	nt	nt	-1	-2
O=[N+]([O-])c1ccc(S(=O)(=O)NCC2CCCO2)cc1 (stereo not given)	2	6	nt	-10	i	-2	4	3
O=C(CC1C(=O)NC2CCCCC2N1C(=O)c1ccc(F)cc1)Nc1ccccc1 (stereo not given)	-9	0	-24	2	i	6	-4	3
NC(=O)CSc1n[nH]c(-c2ccco2)n1	nt	9	4	14	i	1	3	4
Cc1sc2nc(CN(CCc3ccccc3)C(=O)c3ccco3)[nH]c(=O)c2c1C	nt	-7	nt	5	nt	10	nt	nt
COc1ccc(CC(NC(C)=O)C(=O)NC2CCN(C(=O)Nc3ccccc3C)CC2)cc1OC (stereo not given)	-2	5	12	-6	i	-3	3	9
CCOC(=O)c1sc(NC(=O)c2ccc(C)s2)cc1C	-18	-6	nt	32	i	-1	4	-2
COc1cccc(C(=O)OC(C)C(=O)NCC2CCCCC2)c1 (stereo not given)	-6	nt	nt	-19	nt	nt	2	-1
CCCCCN(C(=O)NC(=O)Nc1ccccc1C)S(=O)(=O)c1ccccc1	nt	15	-6	nt	i	-3	3	5
Cc1ccc(OCCn2c(=O)oc3ccc(C)cc32)cc1	-3	-7	-9	-6	i	2	-3	-2
COc1cc(/C=C(\C#N)C(=O)NCc2cccs2)ccc1O	-3	-13	nt	nt	i	-2	-20	-1
COc1cc(S(=O)(=O)Nc2ccc3cn[nH]c3c2)ccc1Cl	nt	-11	21	-5	i	-9	2	3
O=C(Nc1cc(Cl)cc(Cl)c1)C1CCC(=O)N1Cc1ccccc1Cl (stereo not given)	0	2	53*	nt	i	5	1	-4
CC(=O)Nc1ccc(NC(=O)c2ccc(C)c(S(=O)(=O)Nc3cccc(C)c3)c2)cc1	nt	3	17	-8	i	-2	1	-11
CC(C)(C)c1nc(SCC(=O)NC2CCCC2)c2ccccc2n1	-11	-7	1	16	i	-6	-3	-5
NS(=O)(=O)c1ccc(CNC(=O)c2cc(=O)c3ccccc3o2)cc1	-10	-4	18	2	i	3	-2	-2
CC1CCN(c2ccc(S(=O)(=O)N3CCC(C)CC3)cc2N)CC1	13	6	10	8	i	-9	-4	-24
CC(=O)Nc1ccc(NC(=O)CSc2nnc(-c3ccco3)n2Cc2ccco2)cc1	8	-2	-13	-1	i	-12	-4	-5
COc1ccc(N2CCN(C(=O)c3cc(=O)c4ccc(C)cc4o3)CC2)cc1	0	0	2	-15	i	0	0	-1
Nc1nonc1N1CCCCC1	-26	-2	-34	-18	i	-7	-1	3
